Mtb bLac sens – beta-lactam sensitization of Mtb H37Rv, H37Rv; M. tuberculosis H37Rv growth with meropenem, percent inhibition; hits of this screen are not shown here; inhibition, % at 25 µM; actives 0.27% (n = 330,000); AID 434955, 2010;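 active means about 74% or more and at least 40 points above the plate without the antibiotic, then above 30% in a dose series; inconclusive means first-round hits that could not be retested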;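 further: growth measured after seven days incubation then overnight dye step; 0% = bacteria only wells and 100% = bacteria with antibiotic; twin plates without the antibiotic show which effects depend on it; some results filed as inactive read as strong as hits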
YopH inh – YopH tyrosine phosphatase inhibitors, primary screen, biochemical, fluorescence Ex485/Em525; YopH tyrosine phosphatase [Yersinia enterocolitica]; inhibition, %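 (about 10 µM by stock and volumes)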; actives 0.16% (n = 140,000);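 active means inhibition of 50% or more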;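 further: controls were vehicle for no effect and minimum signal wells for full effect; inactives centre near -20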
Mtb H37Rv – M. tuberculosis H37Rv growth inhibitors, H37Rv strain (AID 1626); M. tuberculosis H37Rv growth inhibition; higher % means a stronger effect; inhibition, % at 10 µM; hits with a dose series show IC50 in µM; actives 0.95% (n = 220,000);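 active means confirmed in a dose series; inconclusive means inhibition above 80% but not taken into the dose series; inactive means below 80% or under 30% at every dose of the series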;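 further: bacteria incubated seven days before Alamar blue readout; 0% = bacteria only wells and 100% = bacteria with antibiotic wells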
Arbovirus anti – antivirals against arbovirus infection, primary screen, cell-based, full library, 10K replicate subset. AID 1251, 2008. inhibition, % at 10 µM. arbovirus infection cell-based antiviral screen. actives 0.37% (n = 200,000);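 active means inhibition from about 30%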;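 further: bluetongue infection of BSR cells; cell survival read as ATP light after 72 h; 0% = infected wells without compound and 100% = uninfected wells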
RecA intein inh – Mtb RecA intein splicing inhibitors, primary screen, biochemical, fluorescence, HTS; inhibition, %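 (about 9 µM by stock and volumes)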; cell-free RecA intein splicing; actives 0.75% (n = 290,000); in the data active means inhibition above about 30%; inconclusive means no clear call, values can overlap the other calls;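 further: 0% = vehicle wells and 100% = reference inhibitor control wells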
Target sequence (P9WHJ3 whole entry, looked up): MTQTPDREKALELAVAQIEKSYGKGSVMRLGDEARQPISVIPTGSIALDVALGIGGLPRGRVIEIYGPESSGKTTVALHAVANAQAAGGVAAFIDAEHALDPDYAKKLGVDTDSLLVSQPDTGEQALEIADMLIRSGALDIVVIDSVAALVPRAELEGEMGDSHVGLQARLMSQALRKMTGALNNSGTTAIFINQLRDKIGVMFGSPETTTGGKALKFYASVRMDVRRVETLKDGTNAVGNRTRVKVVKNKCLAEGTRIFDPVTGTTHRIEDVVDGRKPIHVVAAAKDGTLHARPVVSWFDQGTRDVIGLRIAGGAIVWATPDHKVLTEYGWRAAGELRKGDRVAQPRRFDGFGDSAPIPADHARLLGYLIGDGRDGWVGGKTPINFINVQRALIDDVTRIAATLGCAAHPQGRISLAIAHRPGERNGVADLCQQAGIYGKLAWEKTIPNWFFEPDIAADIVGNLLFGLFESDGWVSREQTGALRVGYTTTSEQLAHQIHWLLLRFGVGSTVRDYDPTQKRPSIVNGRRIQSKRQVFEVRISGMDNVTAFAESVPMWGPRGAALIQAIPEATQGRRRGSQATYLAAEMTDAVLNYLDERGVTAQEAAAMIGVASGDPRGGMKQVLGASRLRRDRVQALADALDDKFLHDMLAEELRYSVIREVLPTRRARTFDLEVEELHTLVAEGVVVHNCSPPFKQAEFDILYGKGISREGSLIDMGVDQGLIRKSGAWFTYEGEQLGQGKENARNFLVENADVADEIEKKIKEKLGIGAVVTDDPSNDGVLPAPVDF
Arbovirus anti repeat – second read-out of Arbovirus anti, no call of its own (marks repeat the call); inhibition, %; measured here: 10K subset replicate screen; many hits read low in the repeat;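 first of two repeat runs on a subset; 0% = infected and 100% = uninfected wells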
An asterisk follows results filed as active; u = inconclusive; x = not tested or not shown.

SMILES	Mtb bLac sens	YopH inh	Mtb H37Rv	Arbovirus anti	RecA intein inh	others
O=C(NCc1ccccc1)c1ccccc1C(=O)c1ncc[nH]1	-5	x	-3%	4	-0.2
O=C(O)c1ccccc1Nc1ccc([N+](=O)[O-])c2nonc12	7	x	x	x	0.9
COc1ccc(CCn2nnnc2C(CC(C)C)N2CCC(C(N)=O)CC2)cc1OC (stereo not drawn)	-6	-38	3%	7	2.0
CC(=O)OCC1=C(C(=O)O)N2C(=O)C(NC(=O)c3ccc(F)cc3)C2SC1 (stereo not drawn)	-5	x	-11%	16	3.3
COC(=O)Cc1c(C)nc2nc(NCc3ccc(Cl)cc3)[nH]n2c1=O	-6	-43	x	11	-2.5
CN1CCN(CC(=O)Nc2ccc(Oc3ccccc3)cc2)CC1	-18	-17	-19%	-11	0.7
O=C1N[C@@H](Cc2cnc[nH]2)C(=O)N2CCC[C@@H]12	0	-47	-7%	-1	-1.4
COc1ccc(S(=O)(=O)NN(C)c2nc(C(F)(F)F)nc3ccccc23)cc1	-7	x	x	-17	0.2
CCc1ccccc1NC(=O)CN1C(=O)c2ccccc2S1(=O)=O	4	x	x	x	-0.1
O=C(CN1CCN(Cc2ccccc2Cl)C1=O)NCCCN1CCOCC1	-4	x	-1%	x	2.8
O=C(NCc1ccco1)c1ccc2c(=O)n(-c3ccccc3)c(=O)n(Cc3cccc(F)c3)c2c1	-2	-29	x	-6	x
Cc1nnc(NC(=O)CSc2nnc(C)n2-c2ccc(F)cc2)s1	2	x	-6%	17	-0.3
O=C(O)c1ccc(C(=O)c2ccc3c(c2)C(=O)N(CCO)C3=O)cc1	0	x	-10%	x	-2.7
CN(CCCNC(=O)c1cccn2c(=O)c3ccccc3nc12)Cc1ccccc1	-1	-11	7%	-21	-34
COc1ccc(N(CC(=O)NC2CCCCC2C)S(=O)(=O)c2c(C)nn(C)c2C)cc1 (stereo not drawn)	-3	x	x	x	1.0
CCOC(=O)C1(CCCc2ccccc2)CCN(C2CCN(C(C)=O)CC2)CC1	9	x	5%	-6	3.3
CCOC(=O)N1CCN(S(=O)(=O)c2ccc(OCC)c(C)c2)CC1	-7	-9	-7%	11	10
O=C(Nc1ccc(Cl)cc1)OCc1cn(-c2ccc(Cl)cc2)nn1	2	-44	-1%	-10	-37
Cc1ccnc(NS(=O)(=O)c2ccc(NC(=O)Cc3ccccc3)cc2)n1	-1	-29	4%	2	-2.4
CCOc1ccc(C2SCC(=O)Nc3c2c(=O)[nH]n3C2CCCCCC2)cc1 (stereo not drawn)	-2	-28	-1%	2	-1.7	Arbovirus anti repeat=-1
CN1N=C(C(C)(C)C)CSC1=Nc1ccc(F)cc1	-8	x	-1%	x	x
CCCS(=O)(=O)c1nc(S(=O)(=O)c2ccc(Cl)cc2)c(N2CCC(O)CC2)s1	7	x	x	x	3.0
CC(C)CC(=O)Nc1ccc(C(=O)CN2CCC(C)CC2)cc1	-2	x	1%	-3	-1.6
Fc1cccc(Cl)c1CSc1nnc2ccccn12	-8	x	6%	1	x
CC(=O)c1cn(-c2ccc(Cl)cc2)c(=O)n(Cc2ccc(Br)cc2)c1=O	-3	x	2%	5	-1.8
CCOc1ccc(C(CC(=O)O)NC(=O)Cc2ccccc2)cc1OC (stereo not drawn)	-3	x	x	x	-1.1
Fc1ccccc1CN1CCCC(NC2CCC2)C1 (stereo not drawn)	5	x	x	x	-0.3
COc1ccccc1-c1cc(N)n(S(=O)(=O)c2ccc(F)c(C)c2)n1	-1	-22	4%	-8	6.9	Arbovirus anti repeat=5
Cc1ccc(-c2nnn(CC(=O)N(CC(=O)NC3CCCC3)c3ccc(F)c(Cl)c3)n2)o1	-7	2	0%	-5	-0.7
Cc1[nH][nH]c(=O)c1N=Nc1ccccc1	-4	3	-9%	0	7.1
Cc1cc(C)n(C(N)=NC(=O)c2ccc([N+](=O)[O-])cc2)n1	5	x	0%	x	-6.3
COc1ccc(S(=O)(=O)N2CCSCC2)cc1	-2	x	x	x	0.9
Cc1ccc(NC(=O)c2ccccc2SCC(=O)N2CCCC2)cc1S(=O)(=O)N(C)C	-4	x	x	x	1.2
COC(=O)CN1C(=O)CSc2ncccc21	-4	-20	-8%	0	4.1
COc1cc(C(=S)N2CCCC2)ccc1O	-3	-38	-13%	6	-6.8
O=C(Nc1ccc(F)cc1F)NC1CCCc2ccccc21 (stereo not drawn)	-2	x	x	x	-0.6
CC(C)CNc1nc(Oc2ccc(=O)n(C)n2)nc(N2CCOCC2)n1	-1	-19	x	0	0.8
CCOC(=O)c1c(C(C)(C)C)oc2ccc(O)cc12	36	-141	12%	-35	x
Cc1c(C(=O)N(CCC#N)c2ccccc2)sc2nc3n(c(=O)c12)CCCC3	4	x	x	x	-1.5
CCCN1C(=O)/C(=C/c2ccc(C)s2)SC1=Nc1ccc(OC)cc1	2	-41	12%	-11	2.3

Twelve structures out of the list, arranged by heavy-atom count, largest number first:
SMILES	Mtb bLac sens	YopH inh	Mtb H37Rv	Arbovirus anti	RecA intein inh	others
Cc1ccc(-c2nnn(CC(=O)N(CC(=O)NC3CCCC3)c3ccc(F)c(Cl)c3)n2)o1	-7	2	0%	-5	-0.7
Cc1ccc(NC(=O)c2ccccc2SCC(=O)N2CCCC2)cc1S(=O)(=O)N(C)C	-4	x	x	x	1.2
CCCS(=O)(=O)c1nc(S(=O)(=O)c2ccc(Cl)cc2)c(N2CCC(O)CC2)s1	7	x	x	x	3.0
CC(C)CNc1nc(Oc2ccc(=O)n(C)n2)nc(N2CCOCC2)n1	-1	-19	x	0	0.8
COc1ccccc1-c1cc(N)n(S(=O)(=O)c2ccc(F)c(C)c2)n1	-1	-22	4%	-8	6.9	Arbovirus anti repeat=5
CC(C)CC(=O)Nc1ccc(C(=O)CN2CCC(C)CC2)cc1	-2	x	1%	-3	-1.6
O=C(Nc1ccc(F)cc1F)NC1CCCc2ccccc21 (stereo not drawn)	-2	x	x	x	-0.6
Cc1cc(C)n(C(N)=NC(=O)c2ccc([N+](=O)[O-])cc2)n1	5	x	0%	x	-6.3
Fc1cccc(Cl)c1CSc1nnc2ccccn12	-8	x	6%	1	x
COc1ccc(S(=O)(=O)N2CCSCC2)cc1	-2	x	x	x	0.9
COc1cc(C(=S)N2CCCC2)ccc1O	-3	-38	-13%	6	-6.8
Cc1[nH][nH]c(=O)c1N=Nc1ccccc1	-4	3	-9%	0	7.1

Next section:
SMILES	Mtb bLac sens	YopH inh	Mtb H37Rv	Arbovirus anti	RecA intein inh	others
COc1ccc(Cl)cc1S(=O)(=O)NC(C)C(=O)NCc1cccnc1 (stereo not drawn)	-2	x	x	x	1.0
CC(C)c1nnc2n1N=C(c1ccc(Cl)cc1)CS2	74	x	x	x	-1.7
Nc1nc(/C=C/c2cccnc2)nc(-c2ccccc2O)n1	-7	x	4%	15	x
O=C(NCCc1csc(-c2ccc(C(F)(F)F)cc2)n1)c1cccs1	9	-32	16%	10	4.3
Cc1ccc(-n2nnnc2SCC(=O)c2cc(C)n(-c3cc(C)on3)c2C)cc1	0	-11	-6%	-2	-0.3
O=C(Nc1ccc(-c2nc3ncccc3o2)cc1)c1ccc([N+](=O)[O-])o1	100	x	x	x	6.2
Cc1ccc(C(=O)OCC(=O)Nc2c(C)n(C)n(-c3ccccc3)c2=O)cc1[N+](=O)[O-]	4	x	-2%	-1	-4.0
Cc1nnsc1C(=O)NC1CCCc2c1cnn2-c1ccc(C(C)(C)C)cc1 (stereo not drawn)	u	x	x	x	6.8
Cc1ccc(C(=O)NCc2ccc3c(c2)OCO3)cc1Cl	10	x	x	x	0.2
Cn1c(=O)cc(OCCCC(=O)N2CCN(Cc3ccc4c(c3)OCO4)CC2)c2ccccc21	6	-10	-4%	-8	0.9
CC(=O)Nc1ccc(N/C=C/C(=O)c2ccccc2)cc1	-1	x	x	x	-0.6
Cc1cc(C)cc(NS(=O)(=O)c2c(C(=O)N3CCCCCC3)c(C)n(C)c2C)c1	-15	x	x	x	-2.4
Cc1cc(C)nc(NC(=O)c2ccc(Cl)c(Cl)c2)n1	20	-12	3%	4	-2.2
CC(=O)NC(=S)Nc1ccc([N+](=O)[O-])cc1C	2	x	4%	1	1.0
COc1cccc(CNc2ccc3c(c2)nc(C)n3C)c1OC	-13	x	x	x	2.7
CC(C)CNC(=O)CCCSc1nc2ccccc2[nH]1	-6	x	5%	1	-0.5
COc1ccc(NC(=O)Cn2c(=O)n(CC(=O)NCc3ccco3)c(=O)c3ccccc32)cc1OC	-2	-40	-6%	10	8.5
Cc1ccc(S(=O)(=O)NCC(=O)OC(C)C(=O)Nc2ncc(Cl)cc2Cl)cc1 (stereo not drawn)	-5	-28	-7%	-7	2.7
O=C(COC(=O)c1c[nH]c(=O)[nH]c1=O)Nc1ccccc1	0	x	0%	7	-2.4
CCCNC(=O)Cc1c(C)oc2ccccc12	1	x	4%	x	1.0

The last two entries of the section before are carried over, then new ones follow:
SMILES	Mtb bLac sens	YopH inh	Mtb H37Rv	Arbovirus anti	RecA intein inh	others
O=C(COC(=O)c1c[nH]c(=O)[nH]c1=O)Nc1ccccc1	0	x	0%	7	-2.4
CCCNC(=O)Cc1c(C)oc2ccccc12	1	x	4%	x	1.0
O=C(O)c1ccc2c(=O)n(-c3ccccc3)c(=S)[nH]c2c1	-1	x	-4%	x	-1.7
Cc1ccc(S(=O)(=O)C(C#N)c2nc3ccccc3nc2N2CCN(C)CC2)cc1 (stereo not drawn)	-7	-19	-5%	-3	-2.5
Cc1ccc2nsnc2c1S(=O)(=O)N(Cc1ccco1)Cc1cc2ccc(C)c(C)c2[nH]c1=O	x	-8	-4%	5	x
CC(C)(C)C1=CC(=Nc2ccccc2N)C=C(C(C)(C)C)C1=O	2	-48	-1%	4	-0.1
O=P(c1ccccc1)(c1ccccc1)N1CCCCC1	2	-31	-6%	2	1.2
CC(=O)Nc1cccc(OC(=O)N2CCOCC2)c1	-3	-26	-5%	0	12
CCN(CC(=O)Nc1ccc(OC)cc1)C(=O)c1ccc([N+](=O)[O-])cc1	-2	x	5%	5	-0.8
CCCCSc1nnc(CCNC(=O)OC(C)(C)C)o1	3	x	12%	x	0.2
COc1ccc(C2CC(c3ccccc3)=NN2S(=O)(=O)c2ccc(C)cc2)c(OC)c1 (stereo not drawn)	0	-31	11%	3	7.2
CC(=O)CC(C)(C)Nc1nc2ccc([N+](=O)[O-])cc2o1	2	x	-4%	x	-1.7
CCOc1ccc(NC(=S)N2CCN(CCN3C(=O)c4cccc5cccc(c45)C3=O)CC2)cc1	-9	x	11%	-11	0.0
COc1ccc2oc(CS(=O)c3ccccc3)c(C(=O)O)c2c1 (stereo not drawn)	3	x	x	x	-0.4
CCN(CC)CCNc1ncnc2c1[nH]c1ccc(OC)cc12	-4	-44	-4%	-12	-1.2
O=C(O)c1ccc(C(=O)O)c(C(=O)c2ccc(NC(=O)c3ccccc3)cc2)c1	-4	x	x	x	-1.8
Cc1ccc(/C=C2\Oc3cc(OC(=O)N4CCOCC4)ccc3C2=O)cc1	4	-22	10%	5	-0.6

Screening results from PubChem.

This is a subset (hit frequency here may not be typical).
